# Calb FLC: C. albicans growth modulation with fluconazole; C. albicans CaCi-2 (fluconazole-resistant clinical isolate) + fluconazole, Alamar Blue growth, 48 h; growth inhibition, % (test concentration not listed); hit rate 0.57% among 300,000; AID 1979;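 active = most replicates above 75%; inconclusive = exactly half above 75%; inactive = most below 75%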;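 also: all wells also contain fluconazole at 8 µg/ml as a sub-toxic cotreatment; 0% = median of DMSO wells and 100% = median of geldanamycin control wells; wells of about 8 µL received 7.5 nL stock; the first replicate is given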
# LANA-H2A inh: blocks KSHV LANA binding to histone H2A/H2B | Q9QR71 | cell-free LANA-H2A/H2B peptide, fluorescence polarization | inhibition, % (no concentration beside the values) | hit rate 0.6% among 320,000; in the data active = inhibition mostly above about 10%, no sharp cut-off; inactive = mostly below about 6.7%;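 also: stock transfer was 7.5 nL into about 10 µL; 0% = median of vehicle wells and 100% = median of positive control wells; one replicate is shown; the record names a cut of 25% in any replicate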
# Target sequence (Q9QR71 whole entry, looked up): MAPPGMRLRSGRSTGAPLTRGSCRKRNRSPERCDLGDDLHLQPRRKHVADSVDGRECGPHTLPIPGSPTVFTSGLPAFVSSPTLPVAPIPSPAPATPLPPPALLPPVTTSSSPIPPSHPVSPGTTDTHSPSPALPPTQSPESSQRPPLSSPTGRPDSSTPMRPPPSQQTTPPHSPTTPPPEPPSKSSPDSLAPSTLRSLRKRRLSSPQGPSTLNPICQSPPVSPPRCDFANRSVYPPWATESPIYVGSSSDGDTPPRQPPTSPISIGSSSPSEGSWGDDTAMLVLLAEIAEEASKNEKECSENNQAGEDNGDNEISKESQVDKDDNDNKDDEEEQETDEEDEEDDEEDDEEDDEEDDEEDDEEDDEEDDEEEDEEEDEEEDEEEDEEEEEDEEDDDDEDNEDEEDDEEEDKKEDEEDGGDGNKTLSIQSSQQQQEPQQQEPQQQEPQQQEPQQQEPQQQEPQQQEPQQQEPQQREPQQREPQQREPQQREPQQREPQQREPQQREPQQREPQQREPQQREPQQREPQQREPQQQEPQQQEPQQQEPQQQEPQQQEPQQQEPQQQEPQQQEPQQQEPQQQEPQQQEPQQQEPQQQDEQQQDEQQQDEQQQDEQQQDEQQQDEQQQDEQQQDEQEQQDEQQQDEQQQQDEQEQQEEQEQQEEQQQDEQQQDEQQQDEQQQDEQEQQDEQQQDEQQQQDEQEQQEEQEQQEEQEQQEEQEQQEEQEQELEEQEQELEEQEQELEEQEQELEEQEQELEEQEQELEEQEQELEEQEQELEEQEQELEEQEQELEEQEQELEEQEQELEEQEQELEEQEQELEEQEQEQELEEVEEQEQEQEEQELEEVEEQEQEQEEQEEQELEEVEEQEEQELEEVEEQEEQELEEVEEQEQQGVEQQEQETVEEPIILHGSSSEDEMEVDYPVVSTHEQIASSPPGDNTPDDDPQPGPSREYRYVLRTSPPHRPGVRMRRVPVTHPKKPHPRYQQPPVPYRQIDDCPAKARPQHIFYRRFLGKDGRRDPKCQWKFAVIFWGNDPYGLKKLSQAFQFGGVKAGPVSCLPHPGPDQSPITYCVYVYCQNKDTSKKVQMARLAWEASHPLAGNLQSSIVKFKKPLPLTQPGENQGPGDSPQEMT
# T cruzi repl: blocks replication of Trypanosoma cruzi; T. cruzi beta-gal in NIH3T3, luminescence, 90 h; inhibition, % (no concentration beside the values); hit rate 1.4% among 300,000;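 active = mean inhibition across valid replicates above about 55%, limit read from the data; inconclusive = mean below that limit but half or more replicates reach it; inactive = mean below it, under half of replicates reach it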;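 also: signal also drops with host cell toxicity which is not excluded here; 0% = plate median of DMSO wells and 100% = zero luminescence signal; higher percent means less beta-gal luminescence so fewer parasites; stock transfer was 50 nL into about 50 µL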
# A1 inh: inhibitors of the anti-apoptotic protein A1, read as caspase activation. MEF A1-2A-BIM cells, Caspase-Glo 3/7 luminescence, 3 h; percent of clofoctol response, vehicle zero. hit rate 0.066% among 330,000. AID 2462. caspase activation, % (concentration not given with the values);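 active = over half of replicate activation scores above 10%, or exactly half above 10 with the replicate mean above 10; inconclusive = replicate mean below 10 yet half the replicates above 10; inactive = over half of replicates below 10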;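 also: wells of about 30 µL received 50 nL stock; many hits fall short of the cut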
# RanGTP-Imp inh: inhibitors of RanGTP-importin-beta interaction, primary screen, biochemical, FRET, CFP-Ran, YFP-importin-beta, homogeneous; cell-free CFP-Ran/YFP-importin-beta FRET ratio; inhibition, % (concentration not given with the values); hit rate 1.1% among 300,000;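 active = most replicates above 15%; inconclusive = exactly half above 15%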;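 also: 0% = DMSO wells and 100% = Ran loaded with GDP instead of GTP; wells of about 40 µL received 100 nL stock; the first replicate is given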
# MLL AF4-AF9 inh: MLL-AF4/AF9 protein interaction inhibition; P42568; AlphaScreen, biotin-AF4 peptide binding to FLAG-AF9; inhibition, % at 10 µM; hit rate 0.47% among 350,000; AID 651704;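 active = every replicate reaching a set inhibition limit, whatever the replicate mean, cut at about 25% in these data; inconclusive = mean inhibition reaches that limit but some replicates miss it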;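 also: 0% = plate neutral control median and 100% = total signal loss; the record names both 10 and 1 µM as test concentration; the first replicate is given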
# Vif TR-FRET: HIV-1 Vif–A3G interaction blockers – biochemical, TR-FRET, GST-Vif 1-94, biotin-A3G peptide, dose response retest, primary screen (AID 1117319). TR-FRET GST-Vif / biotin-A3G peptide binding; higher % means a stronger effect; test concentration not given here; strong numbers were not always called active. one-dose inhibition, %; IC50 in µM for titrated hits. hit rate 0.57% among 260,000;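 active = above the screen mean plus three standard deviations and confirmed in dose response; inconclusive = results disagree or hit not tested in dose response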;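 also: Vif residues 1-94 fused to GST binding biotinylated APOBEC3G peptide 110-148; 0% = full assay without inhibitor and 100% = GST in place of GST-Vif; retest series ran down from 100 µM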
# Beta apoptosis: beta cell apoptosis inhibition; protection from apoptosis, % (concentration not given with the values); hit rate 0.8% among 300,000; INS-1E cytokine-induced death, ATP luminescence, 48 h; percent of positive-control rescue, neutral wells zero;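 active = all replicates at 75% or more, or half of them and the mean; inconclusive = half reach 75% but not the mean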;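 also: 0% = cytokine-treated negative control wells and 100% = positive control rescue; higher means more ATP so stronger rescue from cytokine killing; wells of about 40 µL received 100 nL stock; the first replicate is given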
# * = called active by the depositor; u = inconclusive; x = no result given.
Compound,RanGTP-Imp inh,LANA-H2A inh,Vif TR-FRET,Beta apoptosis,A1 inh,MLL AF4-AF9 inh,T cruzi repl,Calb FLC
CC1=C(C(=O)OC(C)C)C(c2ccco2)NC(=O)N1 (stereo not given),u,-5.4,30%,-2,1.4,x,-8,6
Nc1nc2ccccc2n1CCOc1ccc(Cl)cc1,-2.3,-1.9,-1%,6,0.0,3.3,30,20
O=C1CCc2cc(S(=O)(=O)NCCC(=O)NC3CCN(Cc4ccccc4)CC3)ccc2N1,x,1.8,-5%,-16,-0.7,x,x,x
COc1ccc(OCC(=O)Nc2ccc(N3CCC(C)CC3)cc2)cc1,0.9,-9.7,-3%,12,-0.2,1.3,22,-1
NS(=O)(=O)c1ccc(CNS(=O)(=O)c2ccc(Cl)nc2)cc1,0.9,3.3,9%,1,0.0,3.6,-3,0
CCOC(=O)C1=C(C)NC(=O)NC1c1ccc(Cl)cc1Cl (stereo not given),-5.8,-1.7,5%,-10,0.0,x,-6,11
CCC(C)NC(=O)c1ccc(CN2CCc3ccccc3C2)cc1 (stereo not given),1.8,-2.6,x,1,0.0,1.7,13,-3
Cc1cc(OCC(=O)N2CCC[C@@H]2C(=O)O)c2c(C)c(C)c(=O)oc2c1,-0.3,6.1,x,-11,-0.1,4.4,-12,-2
COCCN(CCOC)Cc1c(C)[nH]c2ccccc2c1=O,-5.9,-1.3,-4%,1,0.1,x,-3,6
C/C(CC(=O)NCc1ccco1)=N\NC(=O)c1ccc([N+](=O)[O-])cc1Cl,1.5,7.3,x,-6,0.3,4.1,6,-2
Cc1ccc(C(=O)N/N=C/c2cccc(OC(=O)/C=C/c3ccco3)c2)cn1,-3.1,3.9,24%,-2,-0.1,0.6,-15,2
COc1ccc(Br)cc1CN(C)CC(O)COc1ccc(Br)cc1 (stereo not given),4.1,8.5,3%,-5,-0.2,2.2,41,4
COc1ccc(CNC(=O)COC(=O)CCCOc2ccc(Cl)cc2Cl)cc1,2.5,3.7,x,-6,-0.3,x,-12,5
Cc1cc(C)n(-c2nc(NCC(C)O)c3c4c(sc3n2)CCCC4)n1 (stereo not given),7.1,-2.3,-22%,57,0.1,x,23,2
COc1ccc2c(c1)NC(c1ccc(N(C)C)cc1)c1cccn1-2 (stereo not given),42*,-7.7,0%,6,-0.3,-2.7,35,-8
CSc1ncc(CN2CCc3c([nH]c4ccccc34)C2c2cccc(C)n2)cn1 (stereo not given),1.7,-0.2,-4%,8,0.3,3.9,-5,-1
CCOc1ccccc1C1C(C#N)=C(N)Oc2cc(C)n(C)c(=O)c21 (stereo not given),0.3,2.9,u,-1,-0.1,-7.2,-9,u
CC1Cc2ccccc2N1C(=O)CN(C)CC(=O)Nc1cccc(F)c1 (stereo not given),x,3.4,-1%,-2,-0.4,3.1,x,x
COc1cc(/C=C/C(=O)OCC(=O)NC(=O)NC(C)(C)C)cc(OC)c1OC,-1.5,-3.7,x,-4,-0.1,-5.0,-3,-1
COc1ccc2c(c1)CCCC21NC(=O)N(CC(=O)c2cc(F)ccc2F)C1=O (stereo not given),x,0.8,-2%,-3,-0.2,0.2,x,x
Cc1cc(OCCCCOc2ccc(S(N)(=O)=O)c(C)c2)ccc1S(N)(=O)=O,6.9,-3.8,2%,0,-0.8,-2.0,5,-3
N#C/C(=C\c1cccnc1)C(=O)Nc1ccc(Cl)cc1,1.7,-4.9,x,-11,-1.0,0.3,-5,3
C=CCn1c(O)c(N=NC(=S)Nc2cccc(C)c2)c2ccccc21,-0.7,4.2,10%,60,-0.1,-22,59*,u
Cc1cc(/C=C2/C(=N)N3C(=NC2=O)SN=C3S(C)(=O)=O)c(C)n1-c1ccccc1,3.8,-1.6,21%,-2,0.2,1.7,-4,32
CCOC(=O)c1cccc(N2C(=O)Nc3ccccc3N2O)c1,-1.8,0.5,2%,-1,-0.5,x,11,9
Cc1nc(-c2nc(-c3c(C(=O)NNC(=O)Nc4cccc(Cl)c4)noc3C)cs2)cs1,5.6,-0.2,19%,-8,-0.3,-4.2,16,0
Cc1csc(NC(=O)CSc2nnc(-c3ccoc3C)o2)n1,-1.1,-1.2,u,x,-0.4,x,-10,11
CCn1cc(CN2CCN(Cc3ccsc3)C(CCO)C2)cn1 (stereo not given),-2.8,-0.8,21%,-1,0.5,-0.9,-7,22
COc1ccccc1NS(=O)(=O)c1cccc(C(=O)NNC(=O)C(C)NC(=O)c2ccco2)c1 (stereo not given),x,-1.1,x,-7,1.7,-1.4,x,x
Cc1ccc(S(=O)(=O)NNC(=O)c2ccc(F)cc2)cc1,u,7.0,2%,-9,0.4,2.6,4,20
NS(=O)(=O)c1cccc(NC(=O)COC(=O)c2ccccc2SCC(=O)N2CCCC2)c1,x,-0.2,10%,-1,0.5,3.3,x,x
Cc1cc(C)c(S(=O)(=O)c2cccc(Br)c2C)c(=O)[nH]1,u,-3.3,-5%,-11,-0.1,0.6,-16,6
O=C(NCc1ccc(F)cc1)C1CCCN(C(=O)Nc2ccccc2)C1 (stereo not given),x,0.1,71%,0,0.6,x,-4,-3
CCOC(=O)C1(Cc2cccc(OC)c2)CCN(Cc2cnc(N)nc2)CC1,11,0.1,u,-7,-1.4,0.2,1,-24
CC1CC(=O)Nc2ccccc2N1C(=O)COc1ccc2cc(Br)ccc2c1 (stereo not given),x,1.3,-30%,-9,0.3,1.7,x,x
CC(=O)Nc1cc(-c2nn3c(C)nnc3s2)ccc1C,-1.8,1.6,7%,-5,-0.4,2.7,-9,2
Cn1c(=O)n(C)c2cc(/C=N/NC(=O)c3ccncc3)ccc21,1.5,0.5,-5%,1,0.1,x,-12,-7
CC1C(C#N)=C(N)OC2=C1C(=O)CC(c1ccccc1)C2 (stereo not given),3.2,3.6,-4%,-2,-0.6,0.5,-10,-9
O=C(CN1CCOc2ccccc21)N1CCN(c2cccc(Cl)c2)CC1,-1.1,2.1,0%,-7,-0.5,5.9,0,16
O=C(COc1ccccc1O)NNc1ccccc1,3.0,0.7,-8%,-3,1.0,-2.2,13,-1
Cc1cccc(NC(=O)c2sc(NC(=O)COc3ccccc3)c(C#N)c2C)c1C,-1.8,-0.8,-16%,10,-4.2,-2.8,-21,-2
CCCCCCNC(=O)Cc1c(O)c2ccccc2[nH]c1=O,-5.1,3.8,-1%,-10,0.0,x,-8,2
COC(=O)c1ccc(C(c2c(C)n(C)n(-c3ccccc3)c2=O)c2c(C)n(C)n(-c3ccccc3)c2=O)cc1,-3.0,0.6,x,-5,1.5,13,1,7
O=C(CN(C(=O)CCC(=O)Nc1nccs1)c1ccccc1F)NCc1ccccc1,-3.4,0.7,-6%,-5,-0.1,2.8,4,-4
O=C(CN(CCc1ccccc1)S(=O)(=O)c1ccc(Cl)cc1)N/N=C/c1ccc2c(c1)OCO2,1.3,3.5,x,-1,0.0,x,23,-2
Cc1nn(CC(=O)NCCc2ccccc2)c(=O)c2cc3occc3n12,15,3.7,x,-3,-0.6,0.2,-21,-5
O=C(Nc1cc(Cl)ccc1F)C1=COCCO1,-0.1,-1.8,-9%,-6,-2.2,-6.0,-10,-3
CC(C)(CN1CCc2ccccc2C1)NS(=O)(=O)c1ccccc1,5.7,2.6,0%,1,0.2,-20,3,-9
O=C(c1ccc(Cl)cc1)n1cnc2ccccc21,-2.9,-4.2,x,-5,-0.3,-3.2,-21,5
CC(CNC(=O)C(C)(C)C)NC(=O)C(C)(C)C (stereo not given),1.7,1.2,-6%,-1,-0.6,2.3,-8,2

# Ordered by value in MLL AF4-AF9 inh (smallest number first): 4 from the list above
molecule	MLL AF4-AF9 inh
Cc1nn(CC(=O)NCCc2ccccc2)c(=O)c2cc3occc3n12	0.2
CC1C(C#N)=C(N)OC2=C1C(=O)CC(c1ccccc1)C2 (stereo not given)	0.5
Cc1ccc(S(=O)(=O)NNC(=O)c2ccc(F)cc2)cc1	2.6
CC1Cc2ccccc2N1C(=O)CN(C)CC(=O)Nc1cccc(F)c1 (stereo not given)	3.1

# New compounds follow
Compound,RanGTP-Imp inh,LANA-H2A inh,Vif TR-FRET,Beta apoptosis,A1 inh,MLL AF4-AF9 inh,T cruzi repl,Calb FLC
Cc1ccc(OCc2nnc(SCC(=O)N3CCc4ccccc43)n2C)cc1,-3.3,-6.9,5%,2,-0.5,x,-10,-3
COc1ccc(/C=C(\NC(=O)c2cccs2)C(=O)NC(C)(C)C)cc1OC,-2.2,0.0,0%,-6,-0.4,-0.8,-1,-12
O=C(NCc1ccc(Cl)cc1)C1CCC(CNc2c(N3CCCC3)c(=O)c2=O)CC1 (stereo not given),u,-6.4,3%,-3,0.3,-28,-6,2
CC1CCCN(CCCNC(=O)CN2C(=O)COc3ccc(S(=O)(=O)N4CCOCC4)cc32)C1 (stereo not given),u,x,-4%,x,x,-1.1,-8,0
COc1ccc2oc(=O)c(/C(C)=N/Nc3nc(-c4cc(C)ccc4C)cs3)cc2c1,7.4,-2.0,10%,x,0.4,-0.6,-4,9
O=C(NCCCN1CCCC1=O)[C@H](CSCc1ccccc1)N1Cc2ccccc2C1=O,-2.6,-6.0,-6%,-3,0.5,4.2,-6,-2
CS(=O)(=O)c1sc2nc(-c3cccs3)cc(-c3ccccc3)c2c1N,-2.5,-2.8,-3%,2,-0.5,x,x,11
CCC1CCCCN1CC(=O)Nc1cc(C)nn1-c1nc(C)cc(C)n1 (stereo not given),8.0,1.5,5%,20,-0.5,3.1,-7,4
COC(=O)[C@@]1(Cc2ccc(OC)cc2)[C@H]2c3cc(C(=O)N4CCCC4)n(Cc4c(CO)[nH]cc(C)c4=O)c3C[C@H]2CN1C(=O)c1ccccc1,6.4,2.0,x,3,1.8,7.9,4,-1
CC(=O)Nc1ccc(N2CCN(c3ccc(C(F)(F)F)cn3)CC2)nc1,0.2,3.1,x,3,0.6,-1.7,16,-4
Nc1n[nH]c(C2CC2)c1N=Nc1ccc(Cl)c(Cl)c1,-4.3,1.9,u,-11,0.0,-16,-1,-10
COc1cc(N)c(Cl)cc1C(=O)OCC(=O)NCC1CCCO1 (stereo not given),x,0.8,x,-1,-0.4,1.2,x,x
COc1ccc(CCNC(=O)C2CCN(C(=O)c3cccc(Cl)c3)CC2)cc1OC,u,8.1,-9%,1,0.2,2.1,-1,1
Cc1ccc(OC(=O)c2oc3ccc(F)cc3c2C)c(C)c1,2.7,1.5,1%,55,-0.9,-92,-9,6

# Copied from the list:
# In MLL AF4-AF9 inh, COc1ccc(CCNC(=O)C2CCN(C(=O)c3cccc(Cl)c3)CC2)cc1OC has 2.1
# In MLL AF4-AF9 inh, CC1CCCN(CCCNC(=O)CN2C(=O)COc3ccc(S(=O)(=O)N4CCOCC4)cc32)C1 (stereo not given) has -1.1

# Assay outcomes deposited in PubChem BioAssay by several laboratories.
